FGF22 binding – binders of recombinant human FGF22 by thermal shift | 1.5% of 340,000 active | AID 651658 | Q9HCT0 | calls only at 9.99 µM | SYPRO orange fluorescence; percent of sucrose octasulfate shift, DMSO zero;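 active = melting point raised past a set limit in the mean and every replicate; inconclusive = no clear call; three in four hits are not shown here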
Target sequence (Q9HCT0 whole entry, looked up): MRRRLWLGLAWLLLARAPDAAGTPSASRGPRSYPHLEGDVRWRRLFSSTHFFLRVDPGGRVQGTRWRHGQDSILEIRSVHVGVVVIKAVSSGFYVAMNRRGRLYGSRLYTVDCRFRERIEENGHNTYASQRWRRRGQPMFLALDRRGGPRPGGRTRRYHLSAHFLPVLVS
HNF4A DNA FP – change in binding of human HNF4 alpha to DNA; P41235; HNF4a-FITC DNA binding, fluorescence polarization, 1 h; activity change, % at 10 µM; 0.3% of 360,000 active; in the data active = activity change above about 30%, passing the limit was not always enough;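 also: controls were the assay level and a saturating level of protein; the project sought stronger binding though the title names inhibitors; some compounds called inactive have numbers as strong as hits; positive values seem to mean higher polarization but the record does not say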
Target sequence (P41235 whole entry, looked up): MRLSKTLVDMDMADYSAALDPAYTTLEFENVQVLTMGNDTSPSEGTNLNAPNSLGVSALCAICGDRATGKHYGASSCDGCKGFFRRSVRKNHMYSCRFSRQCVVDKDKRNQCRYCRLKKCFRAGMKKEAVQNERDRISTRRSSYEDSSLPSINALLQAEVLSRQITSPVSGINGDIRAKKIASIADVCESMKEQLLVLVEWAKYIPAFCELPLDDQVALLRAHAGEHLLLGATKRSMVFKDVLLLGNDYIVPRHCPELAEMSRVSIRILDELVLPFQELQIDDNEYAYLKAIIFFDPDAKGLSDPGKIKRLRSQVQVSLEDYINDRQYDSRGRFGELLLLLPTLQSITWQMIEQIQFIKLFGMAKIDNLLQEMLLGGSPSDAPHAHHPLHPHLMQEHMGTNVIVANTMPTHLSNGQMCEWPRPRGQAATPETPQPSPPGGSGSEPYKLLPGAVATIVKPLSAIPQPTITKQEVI
Ecoli rRNA inh – inhibits bacterial ribosomal RNA function over humanized ribosomes. GFP signal change (wild-type ribosome), % (test concentration not listed). E. coli WT GFP vs humanized-ribosome RFP mutants, fluorescence, 24 h; stronger effect = lower value; DMSO median 0, no signal -100. 1.6% of 350,000 active. AID 720706;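 active = significant combined selectivity score with lowered wild-type GFP, culture density cut under 30%, mutant RFP and density less affected; inactive = any of these conditions unmet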; also: one replicate is shown; some compounds called inactive have numbers as strong as hits
MLL AF4-AF9 inh – MLL-AF4/AF9 protein interaction inhibition. AlphaScreen, biotin-AF4 peptide binding to FLAG-AF9. inhibition, % at 10 µM. 0.47% of 350,000 active. AID 651704;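 active = every replicate reaching a set inhibition limit, whatever the replicate mean, cut at about 25% in these data; inconclusive = mean inhibition reaches that limit but some replicates miss it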;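 also: 0% = plate neutral control median and 100% = total signal loss; the record names both 10 and 1 µM as test concentration; the first replicate is given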
Vif TR-FRET – inhibitors of Vif binding to APOBEC3G peptide, primary screen, biochemical, TR-FRET, GST-Vif 1-94, biotin-A3G peptide, dose response retest (AID 1117319) | TR-FRET GST-Vif / biotin-A3G peptide binding; higher % means a stronger effect; test concentration not given here; strong numbers were not always called active | inhibition, %; hits with a dose series show IC50 in µM | 0.57% of 260,000 active;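 active = above the screen mean plus three standard deviations and confirmed in dose response; inconclusive = results disagree or hit not tested in dose response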;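 also: Vif residues 1-94 fused to GST binding biotinylated APOBEC3G peptide 110-148; 0% = full assay without inhibitor and 100% = GST in place of GST-Vif; retest series ran down from 100 µM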
ALR H2O2 inh – inhibitors of human sulfhydryl oxidase ALR | P55789 | purified ALR, DTT oxidation, H2O2 HRP-luminol luminescence | inhibition, % (test concentration not listed) | 3.8% of 290,000 active | AID 485317;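 active = mean and each replicate at 75% or more; inconclusive = only one of the two met; inactive = neither met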;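 also: stock transfer was 7.5 nL into about 7.5 µL; 0% = neutral wells and 100% = wells with inactivated enzyme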
Target sequence (P55789 whole entry, looked up): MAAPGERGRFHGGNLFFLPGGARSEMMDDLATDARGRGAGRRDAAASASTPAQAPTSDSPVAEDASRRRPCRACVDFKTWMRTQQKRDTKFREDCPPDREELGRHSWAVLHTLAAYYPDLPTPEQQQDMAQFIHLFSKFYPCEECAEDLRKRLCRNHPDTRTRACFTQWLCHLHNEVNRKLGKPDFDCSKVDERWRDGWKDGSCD
Ecoli growth – blocks Escherichia coli growth | 0.21% of 330,000 active | OD600, 23 h; stronger effect = lower value | OD600 absorbance (concentration not given with the values);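 active = OD600 absorbance below the run mean of sample wells minus 3.6 SD, in any replicate, cut at about 0.56 in these data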;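 also: stock transfer was 300 nL into about 60 µL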
Ecoli rRNA inh OD600 – second read-out of Ecoli rRNA inh, no call of its own (marks repeat the call); OD600 change, %; measured here: OD600 growth;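 optical density of the mix in the first replicate; 0 = DMSO median and -100 = no signal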
Ecoli rRNA inh RFP – also measured in Ecoli rRNA inh; calls as there; RFP signal change, %; measured here: RFP humanized mutant strains;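 first replicate; 0 = DMSO median and -100 = no signal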
* = called active by the depositor; i = inactive; ? = inconclusive; . = not tested or not shown; & = joins results of further samples.

#	ALR H2O2 inh	MLL AF4-AF9 inh	Vif TR-FRET	HNF4A DNA FP	Ecoli growth	Ecoli rRNA inh OD600	FGF22 binding	Ecoli rRNA inh RFP	Ecoli rRNA inh	Structure
1	.	-1.0	.	0.7	.	10	i	-1.2	12	CC1(C(=O)NS(=O)(=O)c2ccccc2C(F)(F)F)CCN1C(=O)CCc1ccccc1 (centres undefined)
2	-11	-1.0	.	-0.3	0.68	1	i	0.3	11	COC(=O)C(C(=O)OC)c1ncc(C(F)(F)F)cc1Cl
3	1	-13	-2%	-2.3	0.64	19	i	-0.1	9	Cc1ccc(CNC(=O)COC(=O)c2ccc(S(=O)(=O)N3CCOCC3)cc2)cc1
4	-6	0.2	?	2.8	0.71	17	i	1.0	19	CCN(CC)CC(=O)c1c(N)n(Cc2ccccc2)c(=O)n(C)c1=O
5	.	1.7	-7%	-1.7	0.68	10	i	-0.2	8	Cc1cc(N2CCOCC2)nc2ccc(NC(=S)NCCN(C)C)cc12
6	-9	-41	5%	3.3	0.65	3	i	-3.7	6	CCCC(=O)Nc1cc(OC)c(NC(=O)NC2CCCCC2)cc1OC
7	.	0.6	.	.	.	-1	i	-2.8	0	CCS(=O)(=O)N1CC2(CN(C(=O)CN3CCOCC3)[C@H](CO)c3c2c2ccc(OC)cc2n3C)C1
8	-4	-3.4	-1%	0.5	0.67	4	i	-0.2	3	COc1ccc(OC)c(NC(=O)NCc2cccnc2)c1
9	2	.	10%	0.8	.	.	.	.	.	Cc1ccsc1/C=N/n1cnc2sc(C)c(C)c2c1=O
10	-7	.	-4%	-2.7	0.72	.	.	.	.	CC(C)CC(=O)NC(=S)Nc1ccccc1F

Two records drawn at random from those above:
#	ALR H2O2 inh	MLL AF4-AF9 inh	Vif TR-FRET	HNF4A DNA FP	Ecoli growth	Ecoli rRNA inh OD600	FGF22 binding	Ecoli rRNA inh RFP	Ecoli rRNA inh	Structure
9	2	.	10%	0.8	.	.	.	.	.	Cc1ccsc1/C=N/n1cnc2sc(C)c(C)c2c1=O
7	.	0.6	.	.	.	-1	i	-2.8	0	CCS(=O)(=O)N1CC2(CN(C(=O)CN3CCOCC3)[C@H](CO)c3c2c2ccc(OC)cc2n3C)C1

Only Ecoli rRNA inh OD600, ALR H2O2 inh and Ecoli rRNA inh RFP, for some of the entries so far:
nr | SMILES | Ecoli rRNA inh OD600 | ALR H2O2 inh | Ecoli rRNA inh RFP
9 | Cc1ccsc1/C=N/n1cnc2sc(C)c(C)c2c1=O | . | 2 | .
10 | CC(C)CC(=O)NC(=S)Nc1ccccc1F | . | -7 | .
8 | COc1ccc(OC)c(NC(=O)NCc2cccnc2)c1 | 4 | -4 | -0.2
7 | CCS(=O)(=O)N1CC2(CN(C(=O)CN3CCOCC3)[C@H](CO)c3c2c2ccc(OC)cc2n3C)C1 | -1 | . | -2.8
1 | CC1(C(=O)NS(=O)(=O)c2ccccc2C(F)(F)F)CCN1C(=O)CCc1ccccc1 (centres undefined) | 10 | . | -1.2
2 | COC(=O)C(C(=O)OC)c1ncc(C(F)(F)F)cc1Cl | 1 | -11 | 0.3

The results go on.
#	ALR H2O2 inh	MLL AF4-AF9 inh	Vif TR-FRET	HNF4A DNA FP	Ecoli growth	Ecoli rRNA inh OD600	FGF22 binding	Ecoli rRNA inh RFP	Ecoli rRNA inh	Structure
11	-2	.	0%	2.8	0.77	.	.	.	.	O=C1CC(C(=O)Nc2ccc(C(=O)N3CCOCC3)cc2)C2(CCCCC2)O1 (centres undefined)
12	-2	-0.1&-11	-5%	1.1	0.7	-4	i	0.6	2	C[C@H](CO)N1C[C@H](C)[C@@H](CN(C)S(=O)(=O)c2ccccc2)Oc2ccc(NC(=O)C3CC3)cc2C1=O
13	-5	6.1	-1%	1.1	0.79	11	i	-3.0	2	CCOC(=O)c1ccc(NCc2nc3ccccc3[nH]2)cc1
14	.	4.0	.	3.5	.	-56	i	20	-39	CCCCCCCCN1C(=O)[C@H](CC(=O)N2CCCC2)C[C@@]2(C(=O)OCC)CCCC=C12
15	.	-0.4	.	.	.	2	i	-0.2	4	CNC[C@H]1Oc2ccc(NC(=O)Cc3ccccc3)cc2CC(=O)N([C@H](C)CO)C[C@H]1C
16	.	-2.3	.	.	.	-4	i	-1.7	-1	C/C=C/c1cnc2c(c1)C(=O)N([C@H](C)CO)C[C@H](C)[C@H](CN(C)S(=O)(=O)c1ccc(F)cc1)O2
17	-2	-8.9	11%	3.9	.	-2	i	0.1	7	CC1=C/C(=N\NC(=O)c2ccccc2)CC1
18	.	-2.5	.	.	.	5	i	-2.5	1	CCCNC(=O)N1C[C@H](C)[C@H](OC)CN(C)C(=O)c2ccc(NS(C)(=O)=O)cc2OC[C@@H]1C
19	.	-3.7	.	.	.	8	i	-0.9	5	Cc1noc(C)c1S(=O)(=O)Nc1ccc2c(c1)C(=O)N([C@@H](C)CO)C[C@@H](C)[C@@H](CN(C)S(C)(=O)=O)O2
20	-3	.	4%	-1.2	0.77	.	.	.	.	C=C(C)CSc1nc2ncccc2[nH]1
21	.	.	5%	0.3	0.69	.	.	.	.	Cc1ccc([N+](=O)[O-])cc1N(CC(=O)Nc1ccc(S(=O)(=O)Nc2cccc(C(F)(F)F)c2)cc1)S(C)(=O)=O
22	.	-4.4	.	1.2	.	3	i	-0.9	3	OC[C@@H]1CN(Cc2cccnc2)C[C@H](n2cnc3c(N4CCCC4)ncnc32)O1
23	.	0.0	.	.	.	0	i	-0.6	4	COc1ccc(NC(=O)Nc2ccc3c(c2)C(=O)N([C@@H](C)CO)C[C@H](C)[C@@H](CN(C)Cc2ccc(Oc4ccccc4)cc2)O3)cc1
24	.	-1.1	.	.	.	4	i	-3.1	2	C[C@H](CO)N1C[C@H](C)[C@H](CN(C)Cc2ccc3c(c2)OCO3)Oc2c(NS(=O)(=O)c3cccs3)cccc2C1=O
25	2	0.3	1%	1.8	0.7	-33	i	-6.6	-22	Cc1cccc(-n2ncc3c(N4CCC(C)CC4)ncnc32)c1
26	14	-1.2	22%	2.5	0.73	17	.	-1.4	5	CN(C(=O)CSc1nnc(-c2cccs2)o1)C1CCS(=O)(=O)C1 (centres undefined)
27	-15	-1.2	3%	1.7	0.68	12	i	0.0	10	COc1ccc2c(CC(=O)N[C@@H](Cc3ccccc3)C(=O)O)cc(=O)oc2c1C
28	-1	.	4%	-1.2	0.69	.	.	.	.	COCCn1c(-c2ccccc2)nc2oc3ccccc3c(=O)c2c1=O
29	1	0.9	-7%	3.5	0.66	7	i	-2.8	11	CC(C)OCCCNC(=O)c1cn(C)c2ccc(S(=O)(=O)N3CCCC3)cc2c1=O
30	.	-0.6	-16%	4.6	0.71	0	i	-5.0	2	O=C(CSc1ccc2nnc(-c3cccnc3)n2n1)c1ccccc1

Three of the compounds above, with one line to a screen.
[21] Cc1ccc([N+](=O)[O-])cc1N(CC(=O)Nc1ccc(S(=O)(=O)Nc2cccc(C(F)(F)F)c2)cc1)S(C)(=O)=O
[22] OC[C@@H]1CN(Cc2cccnc2)C[C@H](n2cnc3c(N4CCCC4)ncnc32)O1
[23] COc1ccc(NC(=O)Nc2ccc3c(c2)C(=O)N([C@@H](C)CO)C[C@H](C)[C@@H](CN(C)Cc2ccc(Oc4ccccc4)cc2)O3)cc1

| Assay by compound | 21 | 22 | 23 |
| --- | --- | --- | --- |
| ALR H2O2 inh | . | . | . |
| MLL AF4-AF9 inh | . | -4.4 | 0.0 |
| Vif TR-FRET | 5% | . | . |
| HNF4A DNA FP | 0.3 | 1.2 | . |
| Ecoli growth | 0.69 | . | . |
| Ecoli rRNA inh OD600 | . | 3 | 0 |
| FGF22 binding | . | i | i |
| Ecoli rRNA inh RFP | . | -0.9 | -0.6 |
| Ecoli rRNA inh | . | 3 | 4 |

Some values from above.
MLL AF4-AF9 inh with COc1ccc(NC(=O)Nc2ccc3c(c2)C(=O)N([C@@H](C)CO)C[C@H](C)[C@@H](CN(C)Cc2ccc(Oc4ccccc4)cc2)O3)cc1 → 0.0
Ecoli rRNA inh with C[C@H](CO)N1C[C@H](C)[C@H](CN(C)Cc2ccc3c(c2)OCO3)Oc2c(NS(=O)(=O)c3cccs3)cccc2C1=O → 2

The list goes on.
#	ALR H2O2 inh	MLL AF4-AF9 inh	Vif TR-FRET	HNF4A DNA FP	Ecoli growth	Ecoli rRNA inh OD600	FGF22 binding	Ecoli rRNA inh RFP	Ecoli rRNA inh	Structure
31	.	-16	.	.	.	9	i	-2.1	1	CCN1[C@@H]2c3ccc(-c4ccncc4)c(=O)n3C[C@H]1[C@H](CO)[C@H]2C(=O)NCc1ccccc1
32	.	-6.0	.	.	.	-10	i	1.1	-11	C[C@H](CO)N1C[C@H](C)[C@@H](CN(C)Cc2cccc(C(=O)O)c2)Oc2cc(C3=CCCC3)ccc2S1(=O)=O
33	.	.	2%	0.9	0.67	.	.	.	.	Nc1cc(N)nc(SCC(=O)Nc2ccc3c(c2)OCCCO3)n1
34	.	-1.8	.	.	.	9	i	0.3	3	Cc1noc(C)c1NC(=O)N(C)C[C@H]1Oc2ncc(C#CC3CCCCC3)cc2C(=O)N([C@H](C)CO)C[C@@H]1C

A portion of the library; the hit share may differ from the screen's.
